TRPV1 potentiator – HTS Assay for Compounds that Act as Potentiators of the Vanilloid Receptor 1; actives 0.02% (n = 320,000); TRPV1-expressing cells, Fluo-8 calcium influx, capsaicin EC20 potentiation; host cell line not named in the record; control for the full effect not named in the record; AID 540277, 2011; potentiation, % at 8.33 µM; active means potentiation above 80%; inconclusive means 30% to 80%; inactive means below 30%; note: 0% is about no effect
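Fluo-8 calcium influx in TRPV1-expressing cells, kinetic read (ex 480/em 520 nm). Compound added and read 3 min for agonist activity, followed by capsaicin at EC20 final and 2 min further read for enhancement.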
ClpP mod – qHTS Assay for Activators of ClpP; ATP-dependent Clp protease proteolytic subunit (Bacillus subtilis (strain 168)), P80244; purified B. subtilis ClpP, FRET peptide cleavage, 20 min; actives 1.9% (n = 340,000); Potency, µM (highest dose often 57.5 µM), without a hit: at the top dose activity change, negative = active; active = well fitted falling curve with a large enough effect; inconclusive = small, poorly fitted or top-dose-only effect; inactive = no such curve, though single readings can be large or run the other way; note: potency is the fitted concentration of half-maximal effect; the source files actives as falling curves though it sought activators and does not explain the sign; nearly all actives have a fitted effect of over 65% in size; many hits overshoot -100%
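FRET quenching reversal measured ClpP activation: 10 microg/mL B. subtilis ClpP at pH 8 with the FRET-FV decapeptide, read at 430 nm after 320 nm excitation. The 20-min minus 0-min signal was scaled between DMSO/no-enzyme wells and ADEP (5.8 microM final).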
TRPML1 inh – qHTS for Inhibitors of the Human Mucolipin Transient Receptor Potential 1 (TRPML1). activity change, negative = inhibition, % (test concentration not listed). Mucolipin-1 (Homo sapiens), Q9GZU1. actives 0.02% (n = 390,000). TRPML1-inducible cells, Ca2+ dye fluorescence, FDSS; hits give low values; inhibition of EC80 agonist-evoked calcium signal; in the data active means activity change below about -50%; inconclusive means about -30% to -50%; inactive means above about -30%;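 note: stimulus is agonist 54-4 at its EC80 concentration; % is set by controls: 0 for no effect and ±100 for the full control effect; compound concentration not given in the record; the text of the record puts the active cut at -80%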
Target sequence (Q9GZU1 whole entry, looked up): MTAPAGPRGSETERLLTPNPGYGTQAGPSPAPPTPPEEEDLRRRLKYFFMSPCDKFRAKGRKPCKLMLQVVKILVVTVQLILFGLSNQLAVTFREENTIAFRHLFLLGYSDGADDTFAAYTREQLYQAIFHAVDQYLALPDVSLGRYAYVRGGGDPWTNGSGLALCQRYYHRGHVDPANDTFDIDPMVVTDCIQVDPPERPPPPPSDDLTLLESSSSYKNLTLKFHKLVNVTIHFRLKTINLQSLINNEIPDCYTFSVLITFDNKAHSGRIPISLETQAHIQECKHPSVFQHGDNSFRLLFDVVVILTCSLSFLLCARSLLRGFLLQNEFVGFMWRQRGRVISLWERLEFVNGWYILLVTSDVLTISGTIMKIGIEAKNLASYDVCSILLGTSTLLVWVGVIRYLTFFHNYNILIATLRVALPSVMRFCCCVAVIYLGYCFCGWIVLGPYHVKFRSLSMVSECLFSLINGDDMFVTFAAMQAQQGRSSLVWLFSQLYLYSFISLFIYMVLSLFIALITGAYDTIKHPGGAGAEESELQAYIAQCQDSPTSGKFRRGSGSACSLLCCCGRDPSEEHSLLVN
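Calcium fluorescence in TRPML1-DL cells induced overnight with Tet: a 110 s read after compound pin addition, then a 110 s antagonist read after challenge with 54-4 at 4 uM final (EC80).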
Menin-MLL FL inh – qHTS Assay for Inhibitors Targeting the Menin-MLL Interaction in MLL Related Leukemias: Competition With Fluorescein Labeled MLL-derived Peptide; Fluorescence polarization, fluorescein-MLL peptide displacement from menin; FP activity change, % at 61.4 µM; 290,000 tested, under 10 active; AID 1766, 2009; inconclusive = falling polarisation curve, or a change in total fluorescence; inactive = total fluorescence flat and polarisation flat or rising; no compound was filed as active; the % refers to the polarisation; negative = inhibition;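 note: % of control where 0% means no effect; inhibitors lower the polarisation; unlabelled MLL peptide was the positive control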
TRPML1 ag – qHTS for Agonists of the Human Mucolipin Transient Receptor Potential 1 (TRPML1) | AID 624414, 2012 | activation, % (no concentration beside the values) | Mucolipin-1 (Homo sapiens), Q9GZU1 | actives 0.12% (n = 410,000) | TRPML1-expressing cells, Ca2+ dye fluorescence, FDSS; host cell line not named in the record; reference of the full effect not given here; in the data active = activation above about 50%; inconclusive = about 30% to 50%; inactive = below about 30%; note: 0% is about no effect; the text of the record puts the active cut at 80%
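TRPML1-DL cells, Tet-induced overnight (~16 h, 37 degrees C), loaded 45-90 min at room temperature with Ca8 no-wash calcium dye plus quencher. FDSS fluorescence: 10 s baseline, compound pin-transfer, 110 s agonist read, then EC80 54-4 (4uM final) and 110 s antagonist read.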
PINK1 modulator – A Quantitative High throughput Screen to Identify Chemical Modulators of PINK1 Expression; actives 0.2% (n = 410,000); AID 624263, 2012; Potency, µM (highest dose often 76.6 µM), inactives show at the top dose activation (PINK1 increase), most hits filed as activators; PINK1 immunofluorescence, high-content cytometry, 24 h; active = well fitted activation curve with a large enough effect; inconclusive = small, poorly fitted or top-dose-only effect; inactive = flat fitted curve, though single readings scatter; cell line not stated here;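 note: potency is the fitted concentration of half-maximal effect; % of control where 0% means no effect; nearly all actives have a fitted effect of over 65% in size; a mitochondrial uncoupler was the plate control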
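Readout is PINK1 immunofluorescence, quantified alongside mitochondrial, cell and nuclear markers by laser-scanning microplate cytometry. Cells from a stable line were exposed to compound titrations (5 concentrations) for 24 hours, with CCCP controls.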
Sfp inh – qHTS Assay for Inhibitors of Bacillus subtilis Sfp phosphopantetheinyl transferase (PPTase); 4'-phosphopantetheinyl transferase ffp (Bacillus subtilis), Q9F4F7; Biochemical Sfp PPTase activity, qHTS; Potency, µM, without a hit: max response, negative = inhibition, usual class: inhibitors; actives 3.5% (n = 310,000); active = well fitted inhibition curve with a large enough effect; inconclusive = small, poorly fitted or top-dose-only effect, or another doubt; inactive = no such curve, though single readings can be large or run the other way;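 note: the enzyme is Sfp with the accession as filed and its product quenches rhodamine fluorescence; potency is the fitted concentration of half-maximal effect; 0% = enzyme reaction without inhibitor and -100% = no enzyme wells; top concentration of the series not given in the record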
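With Hepes-Na pH 7.6 buffer containing 10 mM MgCl2, Sfp (15 nM) modified BHQ-2-YbbR (12.5 uM) using rhodamine-CoA (5 uM). Two reads 30 minutes apart at 525/598 nm yielded each well's rate.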
* hit, by the source's call; ? = inconclusive; / = not tested or not shown; & = joins results of further samples; [ ] = dose if it differs, or a comment. An excerpt, so the mix of outcomes need not match the whole.

compound | TRPV1 potentiator | ClpP mod | TRPML1 inh | Menin-MLL FL inh | TRPML1 ag | PINK1 modulator | Sfp inh
COc1ccc(C(=O)c2nc3ccccc3n2C(C)C)cc1 | 10 | -1.0% | -21 | -9.5 | 2.3 | 0.3% | 11%
O=C1NC(=O)N(c2ccc(Br)cc2)C(=O)/C1=C/c1ccsc1 | -9 | -1.3% | 12 | ? | 0.4 | 6.0% | 32µM*
COC1=C(C)C(=O)O[C@]12C(=O)C(C)=C1CCCCN3[C@H]([C@@H]4C[C@H](C)C(=O)O4)CC[C@]132 | 16 | 0.7% | 16 | / | -0.6 | 0.9% | /
Cc1ccccc1CN1CCN(C(=O)Cc2ccccc2)CC1 | -1 | / | -8 | 3.7 | -0.1 | 1.1% | -3%
COc1ccc(-n2c(O)c(/C=C/C=Nc3ccccc3)c(=O)[nH]c2=O)cc1 | -16 | -1.4% | 0 | ? | ? | 2.8% | -7%
COc1ccc(C(=O)C2CN(C)CC2c2ccc(Cl)cc2)cc1 (stereo not drawn) | 2 | 1.2% | -3 | -2.7 | -0.4 | 3.4% | 14%
c1ccc(C2CC3CC4(CCCC4)N2O3)cc1 (stereo not drawn) | -11 | -0.5% | 3 | -1.3 | 0.4 | -1.5%[38.3 µM] | 8%
O=c1[nH]c(=S)n(-c2cccc(Cl)c2)c(O)c1/C=N/N1CCOCC1 | 1 | -0.5% | 6 | ? | -0.1 | 0.1% | -13%
O=c1[nH]c2ccccc2n1C1CCN(C(CCc2ccccc2)c2nnnn2C2CCCC2)CC1 (stereo not drawn) | / | -1.3% | / | / | -0.6 | -1.1% | /
C[C@@H](N)Cc1cnc[nH]1 | / | 0.1% | -12 | ? | 0.7 | 0.9% | -3%&-5%
CC(C)(C)C(=O)Nc1ccc(S(=O)(=O)N2CC3CC(C2)c2cccc(=O)n2C3)cc1 (stereo not drawn) | 14 | -1.9% | -5 | / | 1.0 | 0.1% | 11%
O=C(CCc1nc(-c2ccccc2F)no1)N1CCC2(CC1)OCCO2 | -4 | -24% | -7 | 4.9 | 1.1 | 4.2% | 8%
Cc1nn(C2CCOC(C)(C)C2)c2c1C(c1ccc3c(c1)OCO3)SCC(=O)N2 (stereo not drawn) | 8 | 0.7% | 41 | 2.7 | -1.1 | 0.3% | -3%

Single records, from the list above:
Cc1ccccc1CN1CCN(C(=O)Cc2ccccc2)CC1 in the list: TRPV1 potentiator = -1; ClpP mod = /; TRPML1 inh = -8; Menin-MLL FL inh = 3.7; TRPML1 ag = -0.1; PINK1 modulator = 1.1%; Sfp inh = -3%
COc1ccc(C(=O)c2nc3ccccc3n2C(C)C)cc1 in the list: TRPV1 potentiator = 10; ClpP mod = -1.0%; TRPML1 inh = -21; Menin-MLL FL inh = -9.5; TRPML1 ag = 2.3; PINK1 modulator = 0.3%; Sfp inh = 11%

Reprinted at random: four entries already listed
compound | TRPV1 potentiator | ClpP mod | TRPML1 inh | Menin-MLL FL inh | TRPML1 ag | PINK1 modulator | Sfp inh
CC(C)(C)C(=O)Nc1ccc(S(=O)(=O)N2CC3CC(C2)c2cccc(=O)n2C3)cc1 (stereo not drawn) | 14 | -1.9% | -5 | / | 1.0 | 0.1% | 11%
COc1ccc(-n2c(O)c(/C=C/C=Nc3ccccc3)c(=O)[nH]c2=O)cc1 | -16 | -1.4% | 0 | ? | ? | 2.8% | -7%
COc1ccc(C(=O)C2CN(C)CC2c2ccc(Cl)cc2)cc1 (stereo not drawn) | 2 | 1.2% | -3 | -2.7 | -0.4 | 3.4% | 14%
Cc1ccccc1CN1CCN(C(=O)Cc2ccccc2)CC1 | -1 | / | -8 | 3.7 | -0.1 | 1.1% | -3%

Screening data: PubChem, National Center for Advancing Translational Sciences (NCATS)
